Screening results: PubChem, National Center for Advancing Translational Sciences (NCATS)
ClpP mod – qHTS Assay for Activators of ClpP. purified B. subtilis ClpP, FRET peptide cleavage, 20 min. Potency, µM (doses to about 57.5 µM), for inactives: at the highest dose activity change, negative = active. 1.9% of 340,000 active; active = well fitted falling curve with a large enough effect; inconclusive = small, poorly fitted or top-dose-only effect; inactive = no such curve, though single readings can be large or run the other way; also: potency is read from the fitted curve at half-maximal effect; the source files actives as falling curves though it sought activators and does not explain the sign; nearly all actives have a fitted effect of over 65% in size; many hits overshoot -100%
Target sequence (P80244 whole entry, looked up): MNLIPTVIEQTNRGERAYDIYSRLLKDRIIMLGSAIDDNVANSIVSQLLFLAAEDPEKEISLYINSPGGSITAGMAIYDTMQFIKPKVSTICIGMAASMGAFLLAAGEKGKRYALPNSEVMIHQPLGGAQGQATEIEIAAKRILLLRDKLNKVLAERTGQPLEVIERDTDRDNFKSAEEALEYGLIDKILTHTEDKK
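Purified B. subtilis ClpP, 10 microg/mL final in Tris/HCl pH8 with KCl, BSA, glycerol and Tween-20, cleaved an Abz/nitrotyrosine-quenched decapeptide. Fluorescence (ex 320, em 430) was read at 0 and 20 min at room temperature. Delta was normalized to 5.8 microM ADEP and DMSO/no-enzyme controls.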
Menin-MLL FL inh – inhibitors of human menin-MLL interaction, wild-type MLL peptide | 290,000 tested, under 10 active | Fluorescence polarization, fluorescein-MLL peptide displacement from menin | FP activity change, % at 61.4 µM | AID 1766; inconclusive = falling polarisation curve, or a change in total fluorescence; inactive = total fluorescence flat and polarisation flat or rising; no compound was filed as active; the % refers to the polarisation; negative = inhibition;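 also: % of control where 0% means no effect; inhibitors lower the polarisation; unlabelled MLL peptide was the positive control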
gsp ag – gsp mutant agonism; Potency, µM (highest dose often 76.9 µM), without a hit: top-dose activation (cAMP increase), hits mostly activators; 0.13% of 340,000 active; gsp mutant cells, cAMP HTRF, 30 min; control for the full effect not named in the record; active = well fitted activation curve with a large enough effect; inconclusive = small, poorly fitted or top-dose-only effect, or another doubt; inactive = no such curve, though single readings can be large or run the other way; cell line not stated here;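 also: phosphodiesterase inhibitor Ro 20-1724 added with compounds to block cAMP breakdown; potency is read from the fitted curve at half-maximal effect; nearly all actives have a fitted effect of over 60% in size; about a fifth of the inactives were tested at one dose only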
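Cells in DMEM/10% FBS with G418 were pretreated with compounds in DMSO plus […] (300 uM stock) for 30 min at 37C. cAMP was measured by HTRF (cAMP-d2 plus anti-cAMP antibody-K) after 30 min at room temperature.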
gsp antag – antagonizes gsp, the McCune-Albright syndrome mutation; gsp-mutant cells, cAMP HTRF, 30 min; control for the full effect not named in the record; Potency, µM (doses to about 76.9 µM), for inactives: at the highest dose activity change, negative = inhibition, actives largely listed as inhibitors; 0.4% of 340,000 active; AID 624288; active = falling curve of any shape with a large fitted effect; inconclusive = falling curve, mostly with a smaller effect; inactive = flat or rising curve; cell line not stated here;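 also: intracellular cAMP measured with PDE inhibitor Ro 20-1724 present during compound exposure; potency is read from the fitted curve at half-maximal effect; % is scaled to controls: 0 for no effect and ±100 for the full control effect; nearly all actives have a fitted effect of over 65% in size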
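HTRF cAMP read-out (cAMP-d2 plus anti-cAMP antibody-K in lysis buffer, 30 min RT). Before lysis, cells are exposed to compounds with […] for 30 min at 37C in DPBS containing Ca/Mg, BSA and Tween 20.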
D2 potentiator – potentiates the human D2 dopamine receptor allosterically; P14416; 0.23% of 360,000 active; DiscoveRx D2 beta-arrestin cells, luminescence, 90 min; 100% = 57 uM dopamine signal; potentiation, % (concentration not given with the values); AID 624464; active = potentiation of 50% or more; inconclusive = 30% to 50%; inactive = 30% or less;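 also: compound concentration not given in the record; tested on top of an EC20 dose of dopamine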
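PathHunter D2 cells, attached overnight at 37 deg C, received compound in DMSO plus dopamine at EC20 (50 nM final) for 90 min at 37 deg C. Beta-arrestin recruitment was read as luminescence after 1 h with detection reagent at ambient temperature.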
TRPV1 PAM – human TRPV1 potentiation; Q8NER1; TRPV1-expressing cells, Fluo-8 calcium influx, capsaicin EC20 potentiation; host cell line not named in the record; control for the full effect not named in the record; potentiation, % at 8.33 µM; 0.02% of 320,000 active; AID 540277; active means potentiation above 80%; inconclusive means 30% to 80%; inactive means below 30%; also: 0% is about no effect
Target sequence (Q8NER1 whole entry, looked up): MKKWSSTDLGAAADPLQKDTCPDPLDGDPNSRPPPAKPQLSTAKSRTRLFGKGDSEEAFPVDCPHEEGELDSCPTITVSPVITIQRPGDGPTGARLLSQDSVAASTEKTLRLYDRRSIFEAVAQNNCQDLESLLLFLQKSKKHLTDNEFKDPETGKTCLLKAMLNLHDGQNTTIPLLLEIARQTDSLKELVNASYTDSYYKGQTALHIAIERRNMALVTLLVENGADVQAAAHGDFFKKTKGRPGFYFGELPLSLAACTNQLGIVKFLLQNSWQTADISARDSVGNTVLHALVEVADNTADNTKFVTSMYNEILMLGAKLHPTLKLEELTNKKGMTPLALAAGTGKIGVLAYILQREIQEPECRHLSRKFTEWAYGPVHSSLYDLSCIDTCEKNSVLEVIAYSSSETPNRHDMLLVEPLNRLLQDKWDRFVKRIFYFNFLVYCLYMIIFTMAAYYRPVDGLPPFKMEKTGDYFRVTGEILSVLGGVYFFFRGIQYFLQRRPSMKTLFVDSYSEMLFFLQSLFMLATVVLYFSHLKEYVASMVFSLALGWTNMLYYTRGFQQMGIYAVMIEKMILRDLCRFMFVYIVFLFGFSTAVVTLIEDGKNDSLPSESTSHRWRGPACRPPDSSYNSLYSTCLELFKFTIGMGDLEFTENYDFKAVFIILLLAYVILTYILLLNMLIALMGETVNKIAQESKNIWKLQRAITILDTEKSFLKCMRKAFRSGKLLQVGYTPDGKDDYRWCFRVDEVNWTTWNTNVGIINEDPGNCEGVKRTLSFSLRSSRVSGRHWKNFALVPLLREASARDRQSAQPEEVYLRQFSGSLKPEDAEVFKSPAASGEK
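Cells expressing TRPV1 were dye-loaded with Fluo-8 and read kinetically: 10 s baseline, 3 min after compound (agonist portion), then 2 min after EC20 capsaicin (allosteric enhancer portion). Calcium-bound dye fluorescence at 480/520 nm.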
Sfp PPTase inh – blocks B. subtilis Sfp PPTase activity | Q9F4F7 | Potency, µM, for the others: max response, negative = inhibition, usual class: inhibitors | Biochemical Sfp PPTase activity, qHTS | 3.5% of 310,000 active | AID 1490; active = well fitted inhibition curve with a large enough effect; inconclusive = small, poorly fitted or top-dose-only effect, or another doubt; inactive = no such curve, though single readings can be large or run the other way;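 also: the enzyme is Sfp with the accession as filed and its product quenches rhodamine fluorescence; potency is read from the fitted curve at half-maximal effect; 0% = enzyme reaction without inhibitor and -100% = no enzyme wells; top concentration of the series not given in the record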
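Fluorescence-quenching assay with 15 nM Sfp, 5 uM rhodamine-CoA and 12.5 uM BHQ-2-labelled ybbR peptide in pH 7.6 Hepes/MgCl2 buffer. Enzyme was pre-incubated with compound for 15 min at room temperature. Rate was taken from the 30-min fluorescence change (525/598 nm).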
Active calls of the source: *; ? = inconclusive; / = no result given; & = joins results of further samples; [ ] = dose if it differs, or a comment. Not a hit list; 5.1% or so of the library scored in one or more.

Each structure is followed by: ClpP mod	Menin-MLL FL inh	gsp ag	gsp antag	D2 potentiator	TRPV1 PAM	Sfp PPTase inh
- COc1ccc(C(c2c(N)[nH]c(=S)[nH]c2=O)c2c(N)[nH]c(=S)[nH]c2=O)cc1
    -1.6%	4.0	23%	-1%	-7	-4	79µM*
- O=C(NC1CC2CCC1C2)C1CCN(S(=O)(=O)c2ccc(-c3nn[nH]n3)cc2)CC1 (stereo not given)
    0.9%	0.8	3%	9%	20	9	13%
- CN1CCN(C(=S)NC(=O)/C=C/c2ccccc2Cl)CC1
    /	-0.4	11%[15.4 µM]	4%	-15	19	-14%
- Cc1nc(-c2cccnc2)sc1C(=O)Nc1cccc(C(F)(F)F)c1
    0.1%	11	?	-4%	3	-14	8%
- CCOC(=O)CSc1nnc(-c2cc(OC)c(OC)c(OC)c2)o1
    -0.2%	-2.5	15%	-13%	-4	-2	0%
- COc1ccc(/C=C/C(=O)c2cc(F)ccc2OC(=O)c2ccccc2)cc1OC
    1.2%	/	9%[15.4 µM]	9%	-11	/	/
- Cc1ccc(CS(=O)Cc2ccc(C(=O)N3CCN(C4CCCCC4)CC3)o2)cc1 (stereo not given)
    1.2%	/	?	-11%	-12	-10	5%
- CC1(C)CC(=O)C2=C(C1)N(Cc1cccnc1)C(=O)C2(NC(=O)c1ccc(F)cc1)C(F)(F)F (stereo not given)
    -2.8%	4.0	0%	11%	18	-5	13%
- CN(C)C1=NCCN1CCC1CCCC1
    0.0%	2.8	13%	6%	-8	-1	13%
- CC1CCN(CCCNC(=O)COc2cc(=O)n(C)c3ccccc23)CC1
    -12%	2.9	31%	9%	-10	-4	19%
- CCOc1ccccc1C(=S)NC1CCCCC1
    -19%	-2.9	9%[15.4 µM]	-12%	1	26	89µM*
- COc1ccccc1C1=NOC(Cn2c(NCCOCCO)nc3c2c(=O)n(C)c(=O)n3C)C1 (stereo not given)
    0.4%	-2.9	-1%	-7%	7	3	14%
- NC(=O)C1CCN(C(=O)c2cccc3ccccc23)CC1
    3.6%	-3.9	-118%[inhibitor]	4%	11	-3	11%
- COc1ccc(OC)c(C2C(C(=O)Nc3nc4ccccc4s3)=C(C)NC3=C2C(=O)CCC3)c1 (stereo not given)
    28µM*	2.0	-15%	32µM*	14	6	4%
- Cc1ccccc1NC(=O)c1ccc2c(O)c(S(=O)(=O)c3ccccc3)c(=O)[nH]c2c1
    -11%&-6.2%	1.7	7%	11%	-6	-3	17%
- CC(=O)N1CCSc2ccc(S(=O)(=O)NCc3ccc(F)cc3)cc21
    0.1%	/	0%	-1%	-6	16	20%
- COc1ccc(Br)cc1C(=O)Nc1ccccc1-c1ccccc1
    ?	0.2	-14%	-1%	-12	-9	?
- O=S(=O)(Nc1ccc(S(=O)(=O)N2CCCC2)cc1)c1ccccc1Br
    1.5%	/	-17%	1%	10	17	/
- Cc1cc(Cl)ccc1NC(=O)CCC(=O)N/N=C/c1cc([N+](=O)[O-])ccc1O
    /	-0.6	3%[15.4 µM]	-27%	-24	2	-11%
- O=C(N/N=C/c1cc(Cl)ccc1O)c1ccccc1Br
    -5.2%	11	-101%[inhibitor]	-8%	-3	4	4%
- CCOC(=O)C1Oc2ccccc2C(c2ccc(OC)cc2)=C1C(=O)OC (stereo not given)
    -1.0%	-5.0	/	-13%	-11	/	-9%
- CC1(C)CC(CCNC(=O)c2ccco2)CC(C)(C)N1
    -1.1%	16	1%	3%	3	-14	11%
- COC(=O)c1cc(C(=O)NCCC(C)C)cc([N+](=O)[O-])c1
    /	-0.4	-10%[15.4 µM]	5%	9	-24	11%
- CC1(C)CC(=O)C=C(N2CCCC2)C1
    0.6%	3.3	16%	8%	-8	11	1%
- CCn1ncc(/C=C/C(=O)c2ccccc2)c1C
    1.1%	4.6	2%[15.4 µM]	-12%	-2	-12	8%
- Cc1ccc(S(=O)(=O)N2CCN(C(=O)c3cc(S(=O)(=O)N4CCOCC4)ccc3F)CC2)cc1
    -0.3%	/	-55%[inhibitor]	7%	0	/	/
- Cc1nc2scc(C)n2c(=O)c1S(=O)(=O)NCCc1ccc(Cl)cc1
    /	-0.4	8%[15.4 µM]	3%	1	13	27%
- CCCOc1ccc(C(C)(O)CN2CCOCC2)cc1 (stereo not given)
    -7.0%	-1.3	-18%	3%	-1	-2	17%
- COc1ccc2nc3c(nc2c1)CCCC3
    -1.2%	-0.8	16%[15.4 µM]	4%	-2	23	9%
- COc1ccc(C(=O)NCCN2CCCC2)cc1OC
    6.1%	-2.3	-5%	0%	-12	-16	10%
- Cc1ccc2cc(CN(CC(C)C)S(=O)(=O)c3ccccc3)c(=O)[nH]c2c1
    -26%	-1.4	27%	-20%	-10	-5	-8%
- Cc1cc(OCC(=O)Nc2ccc(N3CCN(C)CC3)cc2)ccc1Cl
    1.2%	3.6	?	8%	-33	-19	5%
- O=C(NCCc1ccc(Cl)cc1)C1CCC(=O)N(C2CCCCCC2)C1 (stereo not given)
    /	-2.3	?	0%	-8	-3	24%
- COc1ccc(-c2ccnc3nc(/N=C/N(C)C)nn23)cc1
    /	2.2	-1%[15.4 µM]	-7%	0	-32	14%
- COc1ccccc1NC(=O)/C=C/c1ccc2c(c1)OCO2
    -4.7%	0.6	-32%[inhibitor]	8%	-18	-19	1%
- O=C(NCc1ccc2c(c1)OCO2)C1CCCN1S(=O)(=O)c1ccc(Cl)cc1 (stereo not given)
    /	5.9	7%[15.4 µM]	-50%	-3	-15	8%
- Cc1ccc([N+](=O)[O-])cc1NC(=O)C[n+]1ccccc1
    -1.8%	-1.2	21%	9%	-6	6	13%
- COC(=O)c1ccc(OCCCCN2CC(C)OC(C)C2)cc1 (stereo not given)
    /	-1.5	-2%	9%	-15	10	56µM*
- CCOC(=O)CNC(=O)CSc1nc2c(C)cccc2cc1CC
    /	1.6	?	8%	4	-11	11%
- CC1CCN(C(=O)CN2C(=O)NC3(CCC(C)CC3)C2=O)CC1 (stereo not given)
    2.3%	/	29%	20%	4	-2	/
- CCOC(=O)C(CCCCCCP(=O)(c1ccccc1)c1ccccc1)NC(C)=O (stereo not given)
    0.8%	3.1	3%[15.4 µM]	-26%	-5	9	10%
- Nc1nc(SCC(=O)N2CCCC2)[nH]c(=O)c1-c1ccccc1
    1.6%	-0.4	-5%	7%	-4	1	1%
- Cc1ccc(OCC(=O)NCc2ccccc2)c([N+](=O)[O-])n1
    1.6%	2.6	8%[15.4 µM]	11%	-9	7	5%
- N#Cc1c(-c2ccccc2)cc(C2CC2)nc1N
    ?	-0.5	-3%	-4%	-10	21	8%
- NC(=O)c1ccc(Br)c(S(=O)(=O)N2CCCCC2)c1
    0.4%	1.6	1%	6%	1	7	19%
- CCN(C(=O)Cc1c(C(=O)O)n(CC)c2ccccc12)c1cccc(C(F)(F)F)c1
    -6.8%	3.5	-4%	1%	-1	16	-5%
- CCN1C(=O)[C@H]2[C@@H](c3ccc(-c4ccc5c(c4)OCO5)cc3)N3CCC[C@@]3(C(=O)OC)[C@H]2C1=O
    -18%	/	9%	-29%	-5	2	/
- Cc1ccc(-n2nc3c(c2NC(=O)c2ccc(S(=O)(=O)N4CCOCC4)cc2)CSC3)c(C)c1
    -0.7%	2.1	-23%	-9%	1	17	11%
- CC(C)Nc1nc(Oc2cccc(Cl)c2Cl)cc(C(F)(F)F)n1
    -25%	-1.2	-55%[inhibitor]	-4%	-25	7	22%
- COc1cccc(C(=O)CSc2nnc(COc3cccc4cccnc34)o2)c1
    -0.7%	1.1	-11%	5%	-12	-22	-15%
- O=C(Cc1ccc(Cl)cc1)N1CCN(c2ccc(F)cc2)CC1
    /	-12	4%	-6%	4	?	-1%
- Cc1cc(C(F)(F)F)n2nc(-c3cnn(C)c3C(F)(F)F)cc2n1
    -7.5%	5.3	3%	4%	6	6	16%
- CCc1cccc(C)c1NC(=O)CN1C(=O)NC(CCc2ccccc2)C1=O (stereo not given)
    /	/	?	5%	2	/	/
- CC(NC(=O)CN1C(=O)COc2ccccc21)c1ccccc1 (stereo not given)
    -0.1%	0.2	-34%[inhibitor]	-3%	14	8	-10%
- Nc1ccc2oc(-c3cccs3)nc2c1
    -6.5%	-0.3	?	5%	-5	30	-8%
- COc1cccc(-n2nnc3c(=O)n(Cc4ccc(Cl)cc4)cnc32)c1
    -7.8%	3.5	-14%	0%	-5	19	22%
- Cc1cc(NC(=O)C(C)SCC(=O)Nc2nc3c(F)cc(F)cc3s2)no1 (stereo not given)
    1.0%	/	18%	-10%	11	11	/
- CCOC(=O)N1CCN(c2c(N3CCc4ccccc4C3)c(=O)c2=O)CC1
    -1.2%	-3.6	?	?	-7	6	18%
- O=C(Cn1nc(C(=O)O)c2ccccc2c1=O)Nc1ccc(F)cc1F
    /	-9.5	22%	5%	7	16	7%
- NC(=O)N/N=C/c1c(O)ccc2oc3c(c12)CCCC3
    /	-1.2	-13%[15.4 µM]	-2%	-2	?	4%

Later entries:
Each structure is followed by: ClpP mod	Menin-MLL FL inh	gsp ag	gsp antag	D2 potentiator	TRPV1 PAM	Sfp PPTase inh
- COc1ccccc1/C=N/Nc1nncc2ccccc12
    /	4.4	11%[15.4 µM]	6%	-10	-3	?
- Cc1cc(C(=O)N/N=C/c2cc(Br)ccc2OC(=O)c2ccc(Br)cc2)n[nH]1
    /	16	/	/	/	5	?
- c1ccc(Cn2c(SCc3cn4cccnc4n3)nnc2-c2ccco2)cc1
    16µM*	1.9	6%	-14%	-3	-6	15%
- CCOC(=O)C1Nc2ccc(C(F)(F)F)cc2C2c3ccccc3CC12 (stereo not given)
    1.1%	/	0%	2%	3	/	/
- Cc1ccc(Nc2nc(/N=C/NO)n[nH]2)cc1C
    -0.4%	-0.1	-9%	1%	-5	6	26%
- Cc1ccc(S(=O)(=O)Oc2ccc(/C=N/NC(=O)c3nn(C)cc3Cl)cc2)cc1
    -0.6%	0.7	-7%	-13%	8	-11	10%
- Cc1ccc(S(C)(=O)=NC(=O)NC(=O)c2c(F)cccc2Cl)cc1 (stereo not given)
    0.2%	2.9	6%[15.4 µM]	4%	-3	-3	4%
